Source: PubChem BioAssay (several laboratories)
Mtb hypoxia inh = inhibitors of hypoxia-regulated fluorescent reporter in Mycobacterium tuberculosis; M. tuberculosis hypoxia-regulated fluorescent reporter, fluorescence; fluorescence inhibition, % (no concentration beside the values); 300,000 compounds, 0.1% hits;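 active means 35 to 45% if threefold the growth effect, above 45% if 1.5-fold the growth effect; inactive means the rest, general growth blockers included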;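 further: wells of about 50 µL received 100 nL stock; 0% = vehicle wells and 100% = reference inhibitor wells; whole bacteria with a GFP reporter of the hypoxia response; strong numbers were not always called active; many hits fall short of the cut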
RN4220 kill = S. aureus RN4220 growth inhibition. OD600, 16 h. inhibition, % (test concentration not listed). 330,000 compounds, 0.33% hits;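 active means z-score of -3 or lower and OD600 up to 0.18 on both plates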;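 further: plate controls were untreated cells for no effect and reference antibiotic for full effect; stock transfer was 100 nL into about 80 µL; one replicate is shown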
BJeLR lethal = kills HRASV12-expressing BJeLR cells | AID 1554 | inhibition, % (no concentration beside the values) | 300,000 compounds, 0.17% hits | BJeLR (HRASV12) viability, CellTiter-Glo ATP luminescence, 48 h; reference of the scale not given here;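 active means replicate mean above 50%; inconclusive means above 50% but judged a plate artefact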;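 further: 50 nL library stock added to about 25 µL; numbers are from one replicate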
ugtP null kill = compounds lethal to S. aureus RN4220 ugtP deletion mutant; OD600 growth, 16 h; some inactives read as strong as hits; growth inhibition, % (no concentration beside the values); 330,000 compounds, 0.54% hits; AID 1259309;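 active means z-score under -3 and OD600 up to 0.15 on both plates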;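 further: plate controls were untreated wells for no effect and antibiotic for full effect; wells of about 80 µL received 100 nL stock; the first replicate is given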
PrP UTR inh = inhibition of PrP 5' UTR reporter expression | inhibition, % (concentration not given with the values) | 340,000 compounds, 0.35% hits | AID 488862 | cell-based PrP 5' UTR mRNA reporter, plate reader;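 active means every replicate at 50% or more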;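 further: 0 = median of the neutral control wells; tested in H4 reporter cells; numbers are from one replicate; inactives centre near -14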
Autofluor counter = compound fluorescence in toxin protease inhibitor counterscreen; compound autofluorescence counterscreen, microsphere flow cytometry; stronger effect = higher value; 360,000 compounds, 3.1% hits; AID 624483; fluorescence intensity (test concentration not listed);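 active means at least 3 SD above the mean of all compounds, about 16000 in these data; inconclusive means too few beads counted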;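 further: 100 nL of 1 mM stock went into each well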
Mtb hypoxia inh growth = second read-out of Mtb hypoxia inh, no call of its own (marks repeat the call); growth inhibition, %; measured here: M. tuberculosis growth (absorbance);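 0% = vehicle and 100% = reference antibiotic; read after six days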
Starred values were filed as active, the others as inactive; ? = inconclusive; . = no result given; & = joins results of further samples.

SMILES	ugtP null kill	Mtb hypoxia inh growth	BJeLR lethal	RN4220 kill	Autofluor counter	PrP UTR inh	Mtb hypoxia inh
Cn1c(N)c(S(=O)(=O)NCc2ccc(Cl)cc2)c(=O)n(C)c1=O	0	5	-1	4.2	2436	-17	10
COc1ccc(C(=O)Nc2ccccc2C(=O)NC(Cc2c[nH]c3ccccc23)C(=O)O)cc1 (stereo not drawn)	-1	-2	-4	5.3	3775	-20&-21	-7
COC(=O)c1sc(=S)n(-c2cccc(Cl)c2)c1N	0	6	-2	6.5	26583*	-13	10
CCN(CC)c1ccc(C=NCCNS(=O)(=O)c2ccc(C)cc2)cc1	0	6	4	0.5	4708	-21	-1
CC1CCCN(C(=O)COC(=O)/C=C/c2ccc(C(F)(F)F)cc2)C1 (stereo not drawn)	5	5	.	8.2	3845	-14	8
CC(C)[C@H](NC(=O)OC(C)(C)C)c1nnc(S(=O)(=O)Cc2c(F)cccc2Cl)o1	5	4	-8	3.0	11207	-20	5
COC(=O)c1ccc(Oc2nc3ccccc3n3c(C)nnc23)cc1	3	0	-7	1.9	5005	-12	4
CCCCc1cc(=O)oc2c(CN3CCCC3)c(O)ccc12	-4	0	2	2.2	20462*	-29	3
CCOC(=O)CCc1c(C)c2ccc(O)cc2oc1=O	-6	-15	-10	5.3	8460	-16	-93
CSc1ccc(/C=C/C(=O)c2ccc(O)cc2)cc1	63	17	-18	26	2660	-59	13
O=C(NCC(c1ccco1)N1CCc2ccccc2C1)c1ccc(Cl)cc1 (stereo not drawn)	9	1	-4	0.3	6478	-33	7
CCN1CCN(CC(=O)NN=Cc2cc(Br)cs2)CC1	7	2	.	3.3	.	.	8
CCc1nnc(NC(=O)CSc2nnc(Cc3cc(=O)[nH]c(=O)[nH]3)n2-c2ccc(OC)cc2)s1	-6	12	-4	-5.5	6891	-6	3
CCCCCCN(C(=O)CCCCCN1C(=O)NC(c2cccc([N+](=O)[O-])c2)C(C(=O)OCc2ccccc2)=C1C)C(C(=O)NCCCC)c1ccc(OCC(=O)OC)c(C(=O)OC)c1 (stereo not drawn)	19	4	22	-4.0	.	.	0
O=C(Cn1ccccc1=O)c1cccs1	9	-5	0	4.1	6430	-21	2
Cc1ccc(-n2c(C(C)n3nc(C)c([N+](=O)[O-])c3C)n[nH]c2=S)cc1 (stereo not drawn)	-1	10	-2	0.0	19726*	-29	-6
CC(=O)c1c[nH]c2ccc(C)cc2c1=O	1	0	4	3.0	9576	-8	2
CCOc1ccc(NC(=O)c2ccccc2NC(=O)c2cccnc2)cc1	2	-2	-10	1.3	4457	-8	-6
O=c1c(Cc2ccccc2)c(O)nc2n1CCS2	3	.	21	-3.1	3968	-4	.
COc1cc(C(F)(F)F)c(C(=O)NCc2cccc(Cl)c2)cn1	0	10	5	4.2	3916	-16	14

Compound profiles, from the list above. Order of screens: ugtP null kill, Mtb hypoxia inh growth, BJeLR lethal, RN4220 kill, Autofluor counter, PrP UTR inh, Mtb hypoxia inh
Cn1c(N)c(S(=O)(=O)NCc2ccc(Cl)cc2)c(=O)n(C)c1=O is listed as 0, 5, -1, 4.2, 2436, -17, 10
CC(=O)c1c[nH]c2ccc(C)cc2c1=O is listed as 1, 0, 4, 3.0, 9576, -8, 2
CC(C)[C@H](NC(=O)OC(C)(C)C)c1nnc(S(=O)(=O)Cc2c(F)cccc2Cl)o1 is listed as 5, 4, -8, 3.0, 11207, -20, 5

Continued.
SMILES	ugtP null kill	Mtb hypoxia inh growth	BJeLR lethal	RN4220 kill	Autofluor counter	PrP UTR inh	Mtb hypoxia inh
CCC(C)(C)n1nnnc1C(C(C)C)N1CCC(C(N)=O)CC1 (stereo not drawn)	1	.	-5	1.3	4925	-3	.
O=C(Cn1ncn2c(cc3ccccc32)c1=O)NCCc1cccs1	4	-4	-9	2.1	4307	-14	5
C#CCNC(=O)C1=CC(C(C)(C)C)CC(OCCCCO)O1 (stereo not drawn)	-3	3	.	2.8	.	.	2
COc1ccc(-c2nc(N)n(C(=O)c3ccccc3Cl)n2)cc1	13	1	7	-1.3	2458	-16	-2
O=C(NCCCn1ccnc1)C1CC(c2ccccc2Cl)=NO1 (stereo not drawn)	2	13	-5	3.5	2689	-11	3
CCC(C)C(NC(=O)c1ccccc1NC(=O)c1ccc(C)cc1)C(=O)O (stereo not drawn)	4	17	-2	2.5	2709	-15	5
COc1ccc(C(=O)NNC(=O)COc2ccc(Cl)cc2)c(OC)c1	7	-15	4	7.8	4658	0	0
CCSC(=O)NC12CC3CC(CC(C3)C1)C2	3	1	.	-2.5	5684	-19	11
CCC1(CC)NC(=O)N(CC(=O)OCC(=O)Nc2ccccc2[N+](=O)[O-])C1=O	8	3	2	6.3	4050	6	-2
COc1ccc(CN2C(=O)CCCc3ccccc32)cc1	4	5	-6	9.5	3529	-18	-1
CC(NC(=O)Cc1ccc(NS(=O)(=O)c2cccc(C(F)(F)F)c2)cc1)c1ccccn1 (stereo not drawn)	2	0	4	1.6	2836	3	-1
COc1ccc(C(=O)NCc2ncccc2C)cc1OC1CCN(C(C)=O)CC1	-1	12	-5	2.1	4581	-8	-6
Cc1cc(=O)oc(C)c1C(=O)NCC1COc2ccccc2O1 (stereo not drawn)	7	5	2	4.9	20933*	-38	6
Cc1ccc(C(=O)n2cnnc2N)cc1C	1	7	-2	4.0	9712	-17	14
O=C(CNC(=O)c1ccccc1)OCC(=O)N1N=C(c2ccc(Cl)cc2)CC1c1ccco1 (stereo not drawn)	-6	3	1	1.1	2586	-26	0
Nc1nc(-c2ccco2)nn1S(=O)(=O)c1ccc(Cl)cc1	6	7	-11	6.4	4273	-96	15
CCOC(=O)c1cnc(SCC(=O)Nc2ccc(N3CCOCC3)cc2)nc1N	1	-2	8	2.6	.	.	-2
Cc1cccc(C)c1NC(=O)CNC(=O)Cc1ccc(Br)cc1	-4	-2	-2	-2.2	4292	7	-3
COc1cccc(Cn2nnc(C(=O)Nc3cc(Cl)ccc3OC)c2N)c1	12	.	-6	-6.4	5835	-1	.
Cc1ccccc1OCC(=O)NN=Cc1cn(C)c2ccccc12	-8	2	.	-0.3	.	.	17
CCOC(=O)c1[nH]c(C)c(C(=O)NCCN2CCOCC2)c1C	4	.	-13	2.5	4228	-14	.
CC(OC(=O)c1cc(-c2cccnc2)nc2ccccc12)C(=O)Nc1ccc2ccccc2c1 (stereo not drawn)	-14	3	-10	-0.1	2778	-22	1
CC(=O)c1cccc(NC(=O)C(C)OC(=O)CCC2CCCCC2)c1 (stereo not drawn)	1	1	-14	-0.4	5925	-7	0
Cc1sc2nc(C)n(/N=C/c3ccccc3)c(=O)c2c1C	.	.	-2	.	9196	-38	.
O=C(N/N=C/c1cccc2ccccc12)c1ccncc1	.	.	-7	.	4121	-2	.
CCc1nc(SCC(=O)N2CCCc3ccccc32)c2oc3ccccc3c2n1	1	.	5	17	?	-17	.
Cc1cc([N+](=O)[O-])cnc1Sc1nccn1C	4	2	-2	3.2	2353	-9	14
O=C(N/N=C/c1ccccc1F)c1ccc(COc2ccccc2Cl)o1	.	.	3	.	7037	-14	.
Cc1ccc(S(=O)(=O)N2C(c3cccc(C)c3)CC=C(C(=O)O)C2c2ccccc2)cc1 (stereo not drawn)	62	5	.	20	.	.	12
CCn1nc(C)c(CN2CCc3c([nH]c4ccccc34)C2C(C)(C)C)c1C (stereo not drawn)	0	-3	3	6.0	3802	-14	3
O=C(Nc1ccc(Cl)cc1Cl)c1ccc(Br)o1	10	2	20	3.3	3073	-44	12
CCN1C(=O)[C@H]2[C@@H](c3ccc(C)cc3)N3C(=O)N(c4cccc(C)c4)C(=O)[C@@]3(Cc3ccccc3)[C@H]2C1=O	.	.	3	.	3839	-35	.
COCCNC(=O)CSc1nc2cc3c(cc2c(=O)n1Cc1ccco1)OCO3	0	8	-1	5.2	8652	-17	16
CC1=C(C(=O)OCCOC(C)C)C(c2cccnc2)C2=C(CCCC2=O)N1 (stereo not drawn)	-1	1	-8	-7.6	3871	-21	12
O=C(Nc1ccc(Cl)cc1)Nc1nc(-c2sccc2Br)cs1	-15	.	3	-2.6	2440	-15	.
O=C(COc1ccc(F)cc1)NN1C(=O)CSC1=S	9	6	9	1.5	2046	-11	-1
Cc1ccc(CNC(=O)CCc2nc3ccccc3c(=O)[nH]2)cc1	-5	8	8	3.8	4272	2	1
O=S(=O)(c1ccccc1F)N1CCN(C(=S)NCc2ccccc2)CC1	-12	10	-5	-2.7	4327	-17	2
O=C(O)CCSc1nnc(-c2cccnc2)n1-c1ccccc1	2	7	1	1.2	10968	-20	2
COc1ccc(NC(=S)NCc2ccccc2Cl)c(OC)c1	2	-4	-4	4.9	3290	-11	0
CCN(CC)c1ccc(NC(=O)CCNS(=O)(=O)c2ccc3c(c2)CCC(=O)N3)c(C)c1	9	-9	8	5.0	4243	-1	-1
Cc1ccc(S(=O)(=O)N2CCOCC2)cc1NC(=O)COC(=O)c1ccc(OCc2c(C)noc2C)cc1	3	11	4	3.7	2376	-8	16
COc1cc(S(=O)(=O)NCC2COCCO2)ccc1-n1cnnn1 (stereo not drawn)	8	8	-9	5.3	8153	-4	7
COc1ccc(N2CC(O)=C(c3nc(C)cs3)C2=N)cc1	1	11	1	3.9	8231	0	14
CC(C)(C)SCCNC(=O)CN(c1ccc(F)cc1)S(C)(=O)=O	5	15	13	2.4	11036	-16	13
COc1ccc(-n2nc(C(=O)NCC(=O)NCCC3=CCCCC3)c3ccccc3c2=O)c(OC)c1	4	7	2	6.0	3562	-30	22
N#C/C(=C\c1ccc[nH]1)C(=O)Nc1ccccc1Cl	4	-9	0	2.3	6029	-89	-9
CC1CCN(c2ccc(/C=C(\C#N)c3nn(-c4ccccc4)c(N)c3C#N)cc2[N+](=O)[O-])CC1	10	3	-3	2.6	1986	-9	-2
Cc1ccc(S(=O)(=O)N2CCOCC2)cc1C(=O)Nc1ccccc1N1CCOCC1	-1	3	.	0.3	8663	-32	-6
COc1cccc(CNS(=O)(=O)c2ccc3c(c2)N(C(C)=O)CCS3)c1	-2	9	5	4.5	5641	-5	6
Cc1nn2cc(-c3ccc(Cl)cc3)nc2s1	-13	9	14	13	10231	-25	1
C=CCn1c(-c2cccs2)nc2nc3ccccc3nc21	10	.	1	12	2646	-30	.
O=C(Cc1c[nH]c2ccccc12)Nc1ccccc1N1CCOCC1	-11	2	0	5.9	2291	-13	-7
Cc1ccc(CS(=O)(=O)CCC(=O)NCCN2CCCCC2C)cc1 (stereo not drawn)	8	2	-2	7.5	7086	-3	6
CC(=O)N(c1ccc(C(C)C)cc1)C1C=CS(=O)(=O)C1 (stereo not drawn)	10	.	-4	-0.8	4705	-13	.
CN(CCC#N)C(=O)COC(=O)c1nn(-c2ccccc2)c(=O)c2ccccc12	-4	1	11	-1.3	4743	-23	3
O=C(Cc1ccccc1)NNC(=O)Nc1ccccc1	8	2	-10	6.2	3084	-8	-2
CCOC(=O)c1sc(-c2ccccc2)cc1N	11	11	9	8.9	9248	-41	3
COC(=O)c1sccc1NC(=O)Cc1ccc(OC)c(OC)c1	3	11	5	5.8	1983	-33	13
Nc1nonc1-n1nnc(C(=O)NN=Cc2ccoc2)c1CSc1ccc(Cl)cc1	-13	3	.	-0.9	.	.	-4

(more compounds)
SMILES	ugtP null kill	Mtb hypoxia inh growth	BJeLR lethal	RN4220 kill	Autofluor counter	PrP UTR inh	Mtb hypoxia inh
COc1ccc(-c2c(-c3cc(OC)cc(OC)c3)n(C)c3ccc(-c4ccc(SC)cc4)cc23)cc1	1	5	.	1.9	4130	-26	3
Nc1cc(=O)[nH]c(SCC(=O)Nc2cccc(S(=O)(=O)N3CCCCC3)c2)n1	0	11	.	0.3	3143	-12	12
CC(NC(=O)OCc1ccccc1)c1nnc(C(C)NC(=O)OCc2ccccc2)o1 (stereo not drawn)	1	11	.	2.3	.	.	13
CC(C)Cn1c(N)c(C(=O)CSc2nnnn2C)c(=O)n(C)c1=O	-1	.	-2	1.2	2506	-26	.
CN(C)c1ccc(C=NNC(=O)c2cnc3ccccc3c2)cc1	0	-1	.	-0.8	.	.	9

Rows were taken by chance. About 4% of those tested had a hit in this group.
